AID504770: growth inhibitors of E. coli YBA685 in a screen for V. cholerae RctB (chromosome II replication) inhibitors. E. coli YBA685 rctB-dependent plasmid, OD600 growth, 3 h; active compounds read low. actives 0.27% (n = 130,000). z-score (test concentration not listed);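 active = z-score under -2 on both plates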;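 note: wells of about 30 µL received 100 nL stock; score is relative to mean and SD of the test wells; the first replicate is given; strong numbers were not always called active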
CapD inh: CapD enzyme inhibition | purified CapD enzyme, fluorescence intensity read-out; active compounds read low; some hits fall short of the stated cut | z-score (test concentration not listed) | actives 0.23% (n = 140,000) | AID 492967;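 active = z-score under -4 in either of two replicates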;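 note: stock transfer was 100 nL into about 40 µL; score is relative to mean and spread of the plate; one replicate is shown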
An asterisk follows results filed as active; . = not tested or not shown. No enrichment for hits. Share with any hit: about 0.41%.

Second line of a record – AID504770 | CapD inh
- CCN(CC)S(=O)(=O)c1ccc(N2CC(C(=O)NC3CCCc4ccccc43)CC2=O)cc1 (centres undefined)
    0.5 | .
- CC(C)NC(=O)CC1Nc2c3ccccc3nc(=S)n2C1=O (centres undefined)
    -0.6 | -0.35
- COC(=O)c1cc(C(N)=O)c(SC)s1
    0.35 | -0.47
- CCOC(=O)c1cnc(SCC(=O)NCc2ccco2)nc1N
    1.8 | -0.98
- CCOC(=O)c1sc(SC)c(C#N)c1-c1cccs1
    -0.2 | 0.42
- CC1CN(C(=O)CCC(=O)N2CCCCC2)c2ccccc2O1 (centres undefined)
    -0.25 | -0.5
- O=C(O)c1ccc(C(=O)O)c(-c2nc3ccccc3s2)c1
    0 | -0.35
- CN(C)c1ccc(/C=C2\N=C(C(C)(C)C)OC2=O)cc1
    -0.55 | .
- CN(C)CCNc1nc2c(c(=O)[nH]c(=O)n2C)n1CC(O)COc1ccc([N+](=O)[O-])cc1 (centres undefined)
    . | -0.48
- Cc1ccc(C)c(Oc2c(C(F)(F)F)oc3c(CN4CCN(C)CC4)c(O)ccc3c2=O)c1
    -0.8 | 0.04
- CC(=O)Nc1ccc(-c2nc3ccccc3c(=O)[nH]2)cc1
    0.25 | 1.7
- COc1cc(C(=O)NCCC(=O)N2CCN(C)CC2)cc(OC)c1OC
    0.95 | 6.4
- COc1ccc(/C=C2/Sc3ccc(C(=O)N(C)C4CCCCC4)cc3NC2=O)cc1
    -0.1 | -0.23
- Cc1ccc(C(=O)COC(=O)c2ccccc2N2C(=O)C3C4C=CC(C4)C3C2=O)cc1[N+](=O)[O-] (centres undefined)
    . | -0.14
- Cc1cc(C)nc(NN2C(=O)/C(=C/c3ccc(N(C)C)cc3)SC2=S)n1
    . | -0.15
- O=C1CCCCC1c1nccc2ccccc12 (centres undefined)
    0.8 | 1.4
- CC(OC(=O)c1ccc(Cl)c(N)c1)C(=O)Nc1ccc(C(N)=O)cc1 (centres undefined)
    -0.6 | .
- O=C(CSc1nnc(-c2ccccc2)o1)N1CCCCC1
    0.45 | -0.69
- COc1nc2c(C)cccc2cc1-c1noc(-c2ccc(C)cc2)n1
    -0.35 | 1.1
- CCOC(=O)COc1ccc(S(=O)(=O)N2CCN(Cc3ccc4c(c3)OCO4)CC2)cc1
    -0.1 | 0.22
- CNC(=O)CN(c1cccc(C)c1C)S(=O)(=O)c1ccccc1
    -0.9 | 56
- O=C(CSc1nncn1-c1ccccc1)Nc1ccccc1
    -0.65 | 0.39
- CC(C)CCSc1nc2ccccc2n1CC(N)=O
    -0.5 | .
- CC(C)c1ccc(N(C)S(=O)(=O)c2ccc3[nH]cc(C(=O)N(C)Cc4ccccc4)c(=O)c3c2)cc1
    . | 2.9
- CCOC(=O)C(c1ccccc1)C(Nc1ccccc1)c1ccccn1 (centres undefined)
    . | 0.095
- CCCN(CC1CC1)c1oc(-c2ccc(F)cc2)nc1C#N
    -1.4 | .
- O=C(Cn1c(C(F)(F)F)nc2ccccc21)NCc1ccco1
    -1.2 | .
- CN1C(=O)c2ccc(NC(=S)NC(=O)C(C)(C)C)cc2C1=O
    0.85 | 1.1
- CCN1CCN(CCCNC(=O)c2ccc3c(=O)n(Cc4ccc(Cl)cc4)c(=S)[nH]c3c2)CC1
    . | -0.045
- Cn1c2c(c3ccccc31)C(=O)C(Cn1ccnc1)CC2 (centres undefined)
    -0.5 | -0.58

Second line of a record – AID504770 | CapD inh
- O=C(c1cccc(F)c1)N1c2ccccc2Sc2ccccc21
    . | -0.71
- COc1cccc(CNC(=O)c2cnc(SC)nc2C)c1
    0.5 | 0.12
- CCOC(=O)c1cc2ccc(O)cc2oc1=O
    -0.75 | .
- O=C(NC(=Nc1ccccc1)N1CCOCC1)Nc1ccccc1
    1.6 | .
- O=C(NC(=O)C(F)(F)F)NC1CCCC1
    2.2 | -0.52
- C=CCOC(=O)Nc1ccc(C(O)(C(=O)OCC)C(F)(F)F)cc1C (centres undefined)
    1 | -0.45
- Cn1ncc(-c2nc(-c3ccc(Cl)cc3)cs2)c1N
    0.3 | 1
- CC(NC(=O)c1ccco1)C(=O)OCc1cccc(C(F)(F)F)c1 (centres undefined)
    -0.5 | .
- Cn1cnc2c(cnn2-c2ccccc2)c1=O
    -0.7 | -0.17
- O=C(Nc1ccc2c(c1)OCCO2)c1ccccc1CSc1nc2ccccc2o1
    0.75 | .
- COc1ccccc1COCC(O)CN1CCC(=O)CC1 (centres undefined)
    -0.55 | .
- COc1ccc(-n2c(-c3ccco3)n[nH]c2=S)cc1
    . | 0.39
- CCOc1ccccc1NC(=O)/C=C/C(N)=O
    -0.8 | -0.56
- OCCNCc1[nH]c2ccccc2c1Cl
    -0.45 | .
- CC(=O)NC1(c2nnnn2-c2cccc(Cl)c2)CCC(C)CC1 (centres undefined)
    . | -0.27
- CCC1(C)Cc2c(sc3nc(SCC(=O)O)n(-c4ccccc4)c(=O)c23)CO1 (centres undefined)
    . | 0.5
- CCOC(=O)N1CCN(C(=O)COC(=O)c2ccc(=O)n(Cc3ccccc3)n2)CC1
    -0.85 | .
- CCOC(=O)/C=c1\s/c(=C\c2ccsc2)c(=O)n1CC(=O)c1cc(C)n(Cc2ccco2)c1C
    -0.2 | .
- c1ccc2c(c1)CNc1ccccc1C2
    -0.25 | .
- COC(=O)c1csc(N)n1
    -0.4 | .
- CN(C)S(=O)(=O)Oc1ccc(C(=O)Nc2ccc([N+](=O)[O-])cc2)cc1
    . | -0.55
- CCOC(=O)CC1C(=O)NCCN1C(=O)OC(C)(C)C (centres undefined)
    0.1 | -0.005
- CN1CCc2nc3sc(C(=O)C(C)(C)C)c(N)c3cc2C1
    -0.25 | -1.5
- O=C(OCc1ncc(-c2ccccc2)o1)c1ccccc1C(=O)c1ccc2c(c1)OCCO2
    -0.45 | .
- CCOC(=O)c1cnc2cc(C)nn2c1C
    . | 0.4
- CC(C)NC(=O)CSc1nnc(-c2cccnc2)o1
    0.5 | .
- Cc1ccc(NC(=O)CCSC2=NCCS2)cc1
    1.5 | .
- CCOc1ccccc1NC(=O)NCCN1CCCc2ccccc21
    1.9 | -0.1
- CCCCC(C(=O)Nc1ccccc1)N1C(=O)c2ccccc2C1=O (centres undefined)
    -0.8 | 0.21
- CN(C)C(=O)c1ccc2c(c1)C1C3CCC(C3)C1C(c1ccccc1)N2 (centres undefined)
    -0.4 | 0.04

Second line of a record – AID504770 | CapD inh
- Cc1nc(C23CC4CC(CC(C4)C2)C3)[nH]c(=O)c1Cl
    0.05 | 0.33
- Cc1cc2ncn(C(=O)c3c(-c4ccccc4Cl)noc3C)c2cc1C
    -0.15 | -0.77
- N#CCNC(=O)c1ccc(Cl)cc1
    0.35 | 0.26
- Cc1nn(-c2ccccc2)c2c1C(c1ccc(-c3ccc(S(=O)(=O)N4CCOCC4)cc3)o1)C1=C(CC(C)(C)CC1=O)N2 (centres undefined)
    -0.75 | .
- CC1CC(C)(C)NC(=S)N1CCCC(=O)Nc1nc2ccccc2s1 (centres undefined)
    . | 0.17
- COC(=O)C1C(=O)C(C(=O)c2ccccc2)C(=O)CC1(C)C (centres undefined)
    -0.75 | 0.17
- COCCn1nnnc1C(C(C)C)N1CCN(C(=O)c2ccco2)CC1 (centres undefined)
    1.1 | .
- CCc1nn(C(C)C(=O)N2CCC3(CC2)OCCO3)c(=O)c2cc3occc3n12 (centres undefined)
    -0.4 | 0.34
- N#CC1=C(N2CCOCC2)c2cc3c(n2C1=N)CCCC3
    1 | -1.4
- O=C(CN(Cc1ccccc1Cl)C(=O)c1ccc(CN2CCOCC2)o1)NCc1ccccc1
    2 | .
- Cc1ccc2nc(NCc3ccccc3)[nH]c2c1
    -2.2* | -0.35
- Cc1sc2ncnc(Cl)c2c1C
    1.1 | .
- Cc1cc(=S)cc(C)n1C
    0.1 | .
- CCOC(=O)c1sc2nc(SCC(=O)NCc3ccco3)n(Cc3cccc(Cl)c3)c(=O)c2c1C
    . | 0.7
- CC1Cc2ccccc2N1C(=O)CSc1nc2scc(-c3ccco3)c2c(=O)n1-c1ccccc1 (centres undefined)
    0.1 | .
- Cc1cc(Cl)ccc1OCCCC(=O)NCc1ccncc1
    -0.35 | 0.12
- Cc1ccccc1NC(=O)COc1coc(CN2CCN(Cc3ccccc3)CC2)cc1=O
    1.1 | .
- N#Cc1nccnc1N1CCN(S(=O)(=O)c2ccccc2Cl)CC1
    . | 2.5
- CCOc1ccc(C2NCCc3c2[nH]c2ccccc32)cc1 (centres undefined)
    . | -0.55
- O=C(O)CCNC(=S)Nc1cc(Cl)ccc1Cl
    . | 0.68
- Cc1cc(=O)oc2cc(OCC(=O)OCc3nnc(-c4ccccc4)o3)ccc12
    -0.9 | .
- Cc1cc(-n2cnc(-c3cnoc3C)n2)no1
    -0.9 | -0.46
- CCCCn1c(O)c(Nc2ccc3c(c2)=NC(=O)N=3)c2ccccc21
    1.4 | .
- O=C(CCNc1n[nH]c(=O)[nH]c1=O)N/N=C/c1ccccn1
    0.15 | 0.04
- O=C(NC1CCCCC1)c1snc2ccc(Cl)cc12
    1.1 | -0.085
- O=C(O)c1cc(C(=O)O)n(Cc2ccccc2Cl)n1
    -0.25 | -0.06
- CCO/C=C1\C(=O)C(C)(C)Oc2ccc3ccc(=O)oc3c21
    -0.65 | 29
- O=C(NCCN1CCCCC1)Nc1cccc2ccccc12
    0.6 | 6.4
- O=C(CSc1ncn[nH]1)c1ccccc1
    -0.6 | 0.24
- O=C(O)C(Cc1ccccc1)C(=O)O
    -0.85 | .

Reprinted at random: two entries already listed.
Second line of a record – AID504770 | CapD inh
- Cc1sc2ncnc(Cl)c2c1C
    1.1 | .
- Cc1ccc2nc(NCc3ccccc3)[nH]c2c1
    -2.2* | -0.35

Other records follow.
Second line of a record – AID504770 | CapD inh
- CSc1nc2scc(-c3cccs3)c2c(=O)n1CC(C)C
    0.35 | .
- CC1=C(C(=O)OCCOC(C)C)C(c2ccc(OCc3ccccc3)cc2)NC(=O)N1 (centres undefined)
    . | 0.025
- COCCN1C(=O)C(=O)/C(=C(\O)c2ccc3c(c2)CC(C)O3)C1c1ccc(Cl)cc1 (centres undefined)
    0.1 | -0.52
- Cn1c(NNC(=O)c2ccccc2)cc(=O)n(C)c1=O
    -1.4 | .
- Cc1[nH]nc2nc(SCC(=O)NC3CCCCC3)n(-c3ccc(Br)cc3)c(=N)c12
    -0.2 | 4.2
- Cc1ccc(N(CC(O)CN(CC(C)C)CC(C)C)S(=O)(=O)c2ccc(C)cc2)cc1 (centres undefined)
    . | -0.3
- Cc1ccc2oc(=O)c3cnn(CC(=O)NCCN4CCN(c5ccccc5F)CC4)c3c2c1
    -0.4 | -0.54
- Cc1ncc(CSc2ccc(Cl)cc2)c(CO)c1O
    -0.3 | 3.1
- Cc1nc(-c2c(C(=O)NNC(=O)OCc3c(-c4c(Cl)cccc4Cl)noc3C)noc2C)cs1
    . | 0.34
- Cc1cccc(N2CCN(C(=O)CCN3C(=O)c4ccccc4C3=O)CC2C)c1 (centres undefined)
    . | -0.12
- O=C(NCCN1CCN(c2cccc(Cl)c2)CC1)c1ccc(CS(=O)(=O)c2cccc(C(F)(F)F)c2)o1
    -0.65 | 0.34
- S=c1[nH]c(-c2ccccc2)c(-c2ccccc2)[nH]1
    0.15 | 68
- CCCn1c(C)cc(C(=O)COC(=O)C2COc3ccccc3O2)c1C (centres undefined)
    -0.05 | .
- O=C(O)CCCN1C(=O)/C(=C/c2c(N3CCN(Cc4ccccc4)CC3)nc3ccccn3c2=O)SC1=S
    0.15 | 0.5
- CNc1ccccc1C(C)(C)c1cc(-c2cccc(OC)c2)no1
    -1 | .
- O=C1OC(Nc2ccc(Cl)c(C(F)(F)F)c2)c2ccccc21 (centres undefined)
    -1.1 | -0.29
- CCN(CCCNc1nc(=S)[nH]c2ccccc12)c1ccccc1
    -1.4 | 0.42
- CCCCn1c(=O)cc(N)[nH]c1=S
    . | -0.39
- CC1(C)CC(=O)C2=C(C1)Nc1ccc3ccccc3c1C2c1cccc2ccccc12 (centres undefined)
    . | 17
- CCn1c(=O)cc(OCC(=O)NCCCN2CCOCC2)c2ccccc21
    -0.5 | 1.6
- COc1cc(/C=c2/sc3nc4c(C)c(C)ccc4n3c2=O)cc(OC)c1OC(C)=O
    . | 1.3
- CCOC(=O)/C(C#N)=C/c1cn(Cc2ccccc2)c2ccccc12
    1.4 | .
- CCOc1ccc(NC(=O)CC2C(=O)N(C)C(=S)N2CCc2ccccc2)cc1 (centres undefined)
    -0.8 | 0.095
- CCN(C(=O)Cn1nc(-c2ccc(OC)cc2)ccc1=O)c1cccc(C)c1
    -0.5 | 26
- CCOC(=O)C1=NN(c2ccccc2)C(c2c[nH]c3ccccc23)N1c1ccc(C)cc1 (centres undefined)
    . | 0.12
- COc1cccc2cc(-c3nc(-c4ccccc4)cs3)c(=O)oc12
    . | 0.4
- O=C(Nc1ccc(Cl)cc1)c1c(O)nc2sc3ccccc3n2c1=O
    . | -0.62
- Cc1ccc2c(c1)-c1onc(C(=O)N(Cc3ccco3)CC3CCCO3)c1CO2 (centres undefined)
    -0.25 | 1.8
- O=S(=O)(c1ccc2c(c1)OCCO2)N1CCN(c2ccnc3cc(Cl)ccc23)CC1
    0.1 | .
- c1ccc2c(c1)nc1n2CN(C2CCCCC2)CN1
    0.6 | -0.18
- Cc1cc2c3c(c(Br)cc(S(=O)(=O)O)c3n1)C(=O)c1ccccc1-2
    . | -1.2
- O=C(O)c1ccccc1C(=O)Nc1nccs1
    -0.25 | .

Compounds from the list above with bromine:
Second line of a record – AID504770 | CapD inh
- Cc1[nH]nc2nc(SCC(=O)NC3CCCCC3)n(-c3ccc(Br)cc3)c(=N)c12
    -0.2 | 4.2
- Cc1cc2c3c(c(Br)cc(S(=O)(=O)O)c3n1)C(=O)c1ccccc1-2
    . | -1.2

Complete entries, quoted from the list. Screens in order: AID504770	CapD inh
Results for c1ccc2c(c1)nc1n2CN(C2CCCCC2)CN1 → 0.6	-0.18
Results for Cc1nc(-c2c(C(=O)NNC(=O)OCc3c(-c4c(Cl)cccc4Cl)noc3C)noc2C)cs1 → .	0.34

Compound activity (PubChem BioAssay)
